E coli growth = blocks Escherichia coli growth; AID 1053175; OD600, 23 h; active compounds read low; OD600 absorbance (test concentration not listed); actives 0.21% (n = 330,000);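 active means OD600 absorbance below the run mean of sample wells minus 3.6 SD, in any replicate, cut at about 0.56 in these data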;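 further: stock transfer was 300 nL into about 60 µL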
UCH37 DUB inh = inhibitors of human deubiquitinating enzyme UCH37. purified proteasome/UCH37, Ub-AMC cleavage fluorescence. inhibition, % (no concentration beside the values). actives 0.33% (n = 330,000). AID 588478;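 active means mean of two replicates above 20%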;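 further: 0% = compound-free wells with enzyme and 100% = wells lacking proteasome; stock transfer was 100 nL into about 20 µL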
Target sequence (Q9Y5K5 whole entry, looked up): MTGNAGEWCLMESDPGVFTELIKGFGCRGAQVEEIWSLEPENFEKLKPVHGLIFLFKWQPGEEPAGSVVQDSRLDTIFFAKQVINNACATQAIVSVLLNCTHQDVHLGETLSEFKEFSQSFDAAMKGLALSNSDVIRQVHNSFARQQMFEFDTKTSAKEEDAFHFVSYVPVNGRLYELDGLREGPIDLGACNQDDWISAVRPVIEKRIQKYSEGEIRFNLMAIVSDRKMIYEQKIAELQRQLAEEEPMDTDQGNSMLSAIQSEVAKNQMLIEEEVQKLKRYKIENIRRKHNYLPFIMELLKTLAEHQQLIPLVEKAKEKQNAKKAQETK
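Test system – human UCH37 enzyme supplied as purified proteasome complex · Incubation – 30 min preincubation with enzyme, 25 min cleavage at room temperature · Detection – AMC fluorescence from Ub-AMC cleavage, excitation 355 nm, emission 460 nm · Benchmarks – no-proteasome wells (full inhibition) and compound-free wells (no inhibition)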
* marks the source's active call; other numbers are inactive results.

Each structure is followed by: E coli growth	UCH37 DUB inh
> CC(=NNC(=O)c1c(Cl)cnn1C)c1ccc(NC(=O)c2ccc(Br)o2)cc1
 : 0.783	-243.0
> CC(C)NC(=S)NN=Cc1ccc2c(c1)OCCO2
 : 0.679	9.4
> Nc1ccc(C(=O)NN=Cc2sc(N3CCOCC3)nc2-c2ccccc2)cc1
 : 0.658	-33.3
> CCON=C(C)c1c(O)c(C)c(-c2ccccc2)n(-c2ccccc2)c1=O
 : 0.711	1.9
> CCn1nc(C)c(C=NNC(=O)c2cccc(OC)c2)c1C
 : 0.621	0.2
> O=C(NN=Cc1ccccc1[N+](=O)[O-])c1ccc2c(c1)OCCO2
 : 0.636	4.1
> O=C(NN=Cc1ccoc1)c1cc(O)cc(O)c1
 : 0.718	2.6
> CC(=O)NCC(C)=NNc1ccc([N+](=O)[O-])cc1
 : 0.669	5.4
> N#CCC(=O)NN=Cc1cc([N+](=O)[O-])ccc1N1CCOCC1
 : 0.674	6.3
> CN(C)C=Nc1sccc1C(N)=O
 : 0.675	8.8
> N#CC(=NNc1ccccc1)C(=N)N1CCCCCC1
 : 0.647	12.2
> CN1CCN(C=Nc2c(C#N)cnn2C)CC1
 : 0.683	-1.0
> O=S(=O)(N=C(c1ccc(F)cc1)N1CCCCC1)c1ccc(Cl)cc1
 : 0.646	-0.2
> COc1cc(C=NN2C(C)CCCC2C)cc(OC)c1O (stereo not given)
 : 0.679	-0.4
> Clc1ccc(-n2cccc2C=Nn2cnnc2)cc1
 : 0.787	7.2
> O=C(NN=Cc1ccc([N+](=O)[O-])o1)c1ccc(O)cc1
 : 0.405*	8.2
> CCOc1ccc(-n2c(C)cc(C=NNC(=O)CC(=O)NC3CCCCC3)c2C)cc1
 : 0.722	4.8
> O=C(O)c1ccc(C=NNC(=O)c2cc3c(ccc4ccccc43)o2)cc1
 : 0.675	-84.6
> Cc1ccc(Oc2ncccc2C=NO)cc1
 : 0.772	3.3
> CCOc1cc(C=NNC(=O)C(N)=O)cc(Br)c1O
 : 0.683	13.3
> CCOc1cc(C=NNC(=O)CSc2nncn2C)ccc1OCC(N)=O
 : 0.706	5.5
> COc1ccc(NC(=O)ON=Cc2c(C)nn(C(C)(C)C)c2C)cc1
 : 0.674	5.3
> COc1cc(C=NNC(=O)CC2(C)OCCCO2)ccc1OCc1ccccc1
 : 0.73	6.0
> C/C(C=NNC(=O)CN1CCN(S(=O)(=O)c2ccc(C)cc2)CC1)=C\c1ccccc1
 : 0.699	6.0
> COc1ccc(C=NNC(=O)c2cc(-c3ccc(C)cc3C)nc3ccccc23)cc1COC(C)=O
 : 0.827	-3.9
> CC(=NNC(=O)c1cc(-c2ccccn2)nc2ccccc12)c1cccc([N+](=O)[O-])c1
 : 0.658	1.6
> Cc1ccc(CC(=O)NN=Cc2ccc3c(c2)OCO3)cc1
 : 0.697	-0.7
> CC(CC(=O)Nc1ccc2c(c1)OCCO2)=NNC(=O)c1cccc(O)c1
 : 0.664	1.8
> Cc1ccc(S(=O)(=O)NN=Cc2ccc(O)cc2O)cc1[N+](=O)[O-]
 : 0.681	4.1
> C/C(C=Nn1c(C)n[nH]c1=S)=C/c1ccccc1
 : 0.656	0.5

Given comma-delimited: part of the list above.
smiles,E coli growth,UCH37 DUB inh
CC(CC(=O)Nc1ccc2c(c1)OCCO2)=NNC(=O)c1cccc(O)c1,0.664,1.8
Clc1ccc(-n2cccc2C=Nn2cnnc2)cc1,0.787,7.2
CC(=NNC(=O)c1cc(-c2ccccn2)nc2ccccc12)c1cccc([N+](=O)[O-])c1,0.658,1.6

Reprinted at random: 4 records from the list, in no set order.
Each structure is followed by: E coli growth	UCH37 DUB inh
> COc1ccc(NC(=O)ON=Cc2c(C)nn(C(C)(C)C)c2C)cc1
 : 0.674	5.3
> CN1CCN(C=Nc2c(C#N)cnn2C)CC1
 : 0.683	-1.0
> CCn1nc(C)c(C=NNC(=O)c2cccc(OC)c2)c1C
 : 0.621	0.2
> O=C(NN=Cc1ccccc1[N+](=O)[O-])c1ccc2c(c1)OCCO2
 : 0.636	4.1

Continued.
CC(=NNC(=O)c1ccc2nc[nH]c2c1)c1ccc([N+](=O)[O-])cc1
  E coli growth = 0.672
  UCH37 DUB inh = 6.6

Cc1nc(Cl)cc(NN=Cc2ccc(O)cc2)n1
  E coli growth = 0.684
  UCH37 DUB inh = 9.3

Cc1cccc(C=NNC(=O)c2cc(-c3cccnc3)nc3ccccc23)c1
  E coli growth = 0.685
  UCH37 DUB inh = 2.4

O=C(CCC(=O)Nc1ccccc1)NN=Cc1cccnc1
  E coli growth = 0.718
  UCH37 DUB inh = 4.6

COc1ccc(N(C(C)C(=O)NN=Cc2ccc(OCC(C)C)cc2)S(C)(=O)=O)cc1 (stereo not given)
  E coli growth = 0.693
  UCH37 DUB inh = -0.3

COc1ccc(C=Nn2cnc3c([nH]c4ccc(C)cc43)c2=O)cc1CN1CCCC1
  E coli growth = 0.646
  UCH37 DUB inh = -0.1

O=C(CN1CCN(S(=O)(=O)c2ccc(Br)cc2)CC1)NN=Cc1ccccc1C(=O)O
  E coli growth = 0.735
  UCH37 DUB inh = 4.6

Cc1ccc(S(=O)(=O)N2CCN(CC(=O)NN=Cc3ccc(Cl)c([N+](=O)[O-])c3)CC2)cc1
  E coli growth = 0.684
  UCH37 DUB inh = 2.1

COCc1cc(C)nc(NN=Cc2ccc(Cl)c(Cl)c2)c1C#N
  E coli growth = 0.684
  UCH37 DUB inh = 1.9

CC1CCCN(CC(O)=C(C#N)c2nc3ccccc3[nH]2)C1 (stereo not given)
  E coli growth = 0.707
  UCH37 DUB inh = 4.3

COC(=O)NN=Cc1cc(C)n(-c2cccc3ccccc23)c1C
  E coli growth = 0.689
  UCH37 DUB inh = 2.7

CCC(C)=NNc1nc(-c2cc3cccc(OC)c3oc2=O)cs1
  E coli growth = 0.671
  UCH37 DUB inh = -6.3

O=C(CC=NOCc1c(Cl)cccc1Cl)c1cnc(-c2ccccc2)s1
  E coli growth = 0.781
  UCH37 DUB inh = 1.1

CCOc1ccc(C=NOCC(=O)NCc2cccs2)cc1
  E coli growth = 0.663
  UCH37 DUB inh = -1.8

CC(CC(=O)Nc1ccc(C)c(Cl)c1)=NNC(=O)Cc1cccs1
  E coli growth = 0.707
  UCH37 DUB inh = 4.0

5 compounds out of the list, arranged by molecular weight, highest first:
COc1ccc(C=NNC(=O)c2cc(-c3ccc(C)cc3C)nc3ccccc23)cc1COC(C)=O
  E coli growth = 0.827
  UCH37 DUB inh = -3.9

O=S(=O)(N=C(c1ccc(F)cc1)N1CCCCC1)c1ccc(Cl)cc1
  E coli growth = 0.646
  UCH37 DUB inh = -0.2

CC(=O)NCC(C)=NNc1ccc([N+](=O)[O-])cc1
  E coli growth = 0.669
  UCH37 DUB inh = 5.4

CN1CCN(C=Nc2c(C#N)cnn2C)CC1
  E coli growth = 0.683
  UCH37 DUB inh = -1.0

Cc1ccc(Oc2ncccc2C=NO)cc1
  E coli growth = 0.772
  UCH37 DUB inh = 3.3

Later entries.
Clc1ccc(Oc2cccc(C=Nn3cnnc3)c2)cc1
  E coli growth = 0.728
  UCH37 DUB inh = 0.6

COc1cc(C=NNc2nc3c(c(=O)n(C)c(=O)n3C)n2Cc2ccccc2)ccc1OC(=O)c1ccco1
  E coli growth = 0.707
  UCH37 DUB inh = -68.1

CC(=NNC(=O)c1ccncc1)c1ccc(NC(=O)c2ccccc2)cc1
  E coli growth = 0.652
  UCH37 DUB inh = 3.3

Cc1[nH]c2ccccc2c1C=Nn1cnnc1
  E coli growth = 0.755
  UCH37 DUB inh = 8.2

C[C@@H]1CC[C@H](O)C=CC(=O)O[C@H](C)CC[C@H](O)C=CC(=O)O1
  E coli growth = 0.747
  UCH37 DUB inh = 2.2

Cc1ccc(CN2CCN(N=Cc3cccs3)CC2)cc1
  E coli growth = 0.673
  UCH37 DUB inh = 5.8

CCOC(=O)CC(C)=NNC(=O)C1CC1(c1ccccc1)c1ccccc1 (stereo not given)
  E coli growth = 0.66
  UCH37 DUB inh = -0.1

Cc1ccc(S(=O)(=O)N=C(c2ccc(F)cc2)N2CCCCC2)cc1
  E coli growth = 0.594
  UCH37 DUB inh = 0.5

CC(=NNC(=O)c1cccs1)c1cccs1
  E coli growth = 0.684
  UCH37 DUB inh = 0.7

COc1cc(C=N/N=C2/NC(=O)C(CC(=O)O)S2)ccc1OCc1cccc(Cl)c1 (stereo not given)
  E coli growth = 0.618
  UCH37 DUB inh = 8.6

O=C(NN=Cc1sc(N2CCCCC2)nc1-c1cccs1)c1cccnc1
  E coli growth = 0.71
  UCH37 DUB inh = -1.9

O=C(O)c1ccc(NN=Cc2ccc(F)c(F)c2)cc1
  E coli growth = 0.696
  UCH37 DUB inh = 19.6

CCOC(=O)NN=Cc1c(C)c(C(=O)c2ccc(F)cc2)n2ccccc12
  E coli growth = 0.716
  UCH37 DUB inh = 0.8

C=CCn1c(O)c(C2=c3ccccc3=NC2=O)sc1=Nc1nccs1
  E coli growth = 0.786
  UCH37 DUB inh = 9.8

COc1ccc(C=NNc2cc(C)nc3ccccc23)cc1
  E coli growth = 0.49*
  UCH37 DUB inh = -27.8

Cc1[nH]n(-c2ccc(Br)cc2)c(=O)c1C=NNC(=O)c1ccccc1
  E coli growth = 0.666
  UCH37 DUB inh = -26.9

Fc1ccccc1-c1n[nH]c(=S)n1N=Cc1c[nH]c2ccccc12
  E coli growth = 0.704
  UCH37 DUB inh = 5.4

C=CCC1S/C(=N/N=Cc2cccs2)NC1=O (stereo not given)
  E coli growth = 0.675
  UCH37 DUB inh = 11.6

CC(CC(=O)NC12CC3CC(CC(C3)C1)C2)=NNC(=O)c1cnccn1
  E coli growth = 0.638
  UCH37 DUB inh = -0.3

Cc1ccc(C=NNC(=O)c2ccc(Cn3cc([N+](=O)[O-])cn3)o2)cc1
  E coli growth = 0.67
  UCH37 DUB inh = 2.6

Cc1cc(C)n(-c2nnc(C)n2N=Cc2ccc(O)cc2)n1
  E coli growth = 0.755
  UCH37 DUB inh = 3.8

Nn1cnnc1NN=Cc1ccc(-c2ccccc2[N+](=O)[O-])o1
  E coli growth = 0.699
  UCH37 DUB inh = 17.0

COc1cccc(NC(=S)NN=C2CCCCc3ccccc32)c1
  E coli growth = 0.695
  UCH37 DUB inh = -2.3

C[n+]1ccc(C=NNc2nc(Cl)c(C#N)c(Cl)c2Cl)cc1
  E coli growth = 0.684
  UCH37 DUB inh = 25.1*

O=C(NN=Cc1cccc(O)c1)NC1CCCCC1
  E coli growth = 0.618
  UCH37 DUB inh = 1.2

O=C(NN=Cc1cccnc1)c1cc(-c2cccs2)nc2ccccc12
  E coli growth = 0.688
  UCH37 DUB inh = -251.7

CC(=NNc1nc(N2CCOCC2)nc(N2CCOCC2)n1)c1cccs1
  E coli growth = 0.637
  UCH37 DUB inh = 6.9

Screens (PubChem BioAssay)

Not all compounds are listed; rates above refer to the full screens.
